# Bioassay records from PubChem BioAssay.
# VDR inhibitor – Inhibitors of the vitamin D receptor (VDR): qHTS. Vitamin D3 receptor (Homo sapiens), P11473. VDR-SRC2-3 peptide fluorescence polarization, 2 h. Potency, µM, for inactives: max response, negative = inhibition, actives largely listed as inhibitors. actives 0.93% (n = 400,000). AID 504847, 2011; active means well fitted inhibition curve with a large enough effect; inconclusive means small, poorly fitted or top-dose-only effect, or another doubt; inactive means no such curve, though single readings can be large or run the other way; further: series mostly up to about 120 µM
# Target sequence (P11473 whole entry, looked up): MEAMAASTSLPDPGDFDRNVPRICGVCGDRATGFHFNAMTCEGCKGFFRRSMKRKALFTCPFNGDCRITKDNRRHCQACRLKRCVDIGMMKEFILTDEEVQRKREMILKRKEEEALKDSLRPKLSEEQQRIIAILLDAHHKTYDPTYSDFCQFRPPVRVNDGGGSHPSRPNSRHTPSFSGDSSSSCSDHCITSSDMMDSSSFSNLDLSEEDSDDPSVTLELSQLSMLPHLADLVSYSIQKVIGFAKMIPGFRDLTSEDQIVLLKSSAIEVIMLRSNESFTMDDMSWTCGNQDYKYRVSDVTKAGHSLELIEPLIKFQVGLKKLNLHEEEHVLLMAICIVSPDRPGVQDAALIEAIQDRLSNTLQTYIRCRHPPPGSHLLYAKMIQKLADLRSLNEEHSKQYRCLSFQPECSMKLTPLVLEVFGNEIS
#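 Reagent solutions, kept cold and dark, are dispensed first; compounds are then pinned in at 23 nl, plates briefly spun, and incubated 2 h at ambient temperature. Inhibition of VDR–SRC2-3 peptide binding is read by fluorescence polarization.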
# Numbers without * were called inactive; ? = inconclusive; & = joins results of further samples. On the % scale 0 is the no-effect control and ±100 the full control effect; potency means the concentration at half of the fitted maximal effect. These rows are one share of the data; the hit share may differ from the screen's.
VDR inhibitor	Structure
-5%	Cc1ccc(S(=O)(=O)N2CCCCC2)cc1NC(=O)CSc1ccc2c(c1)OCCO2
14%	O=C(Nc1ccc(S(=O)(=O)Nc2ncccn2)cc1)c1cccc(Cl)c1
-5%	CCCCn1c(-c2ccco2)nc2oc3ccccc3c(=O)c2c1=O
-1%	COc1ccc(C(=O)N/C(=C/c2ccco2)C(=O)N2CCCCCC2)cc1
5%	Cc1cccc(NC(=O)COC(=O)CCc2c[nH]c3ccccc23)c1
10%	CN(C)C(CNC(=O)CCCOc1ccccc1)c1ccco1 (centres undefined)
-5%	CC(C)C(NC(=O)Cc1ccccc1[N+](=O)[O-])C(C)C
-3%	COc1ccc(CC(=O)NCc2nc3cccnc3n2Cc2ccccc2)cc1
8%	CCOC(=O)Cc1[nH]nc2c1C(c1ccsc1)C(C#N)=C(N)O2 (centres undefined)
-6%	COc1ccc(CCNc2nc(-c3ccc(NC(C)=O)cc3)cs2)cc1OC
-24%	COCCNC(=O)c1cn(C(C)c2ccccc2F)nn1 (centres undefined)
5%	COc1ccc(N(C(C)C(=O)Nc2cccnc2)S(C)(=O)=O)cc1 (centres undefined)
13%	CCOC(=O)C1CCCN(C(=O)c2ccc3c(=O)n(Cc4ccccc4OC)c(=S)[nH]c3c2)C1 (centres undefined)
-1%	Cc1ccc(SCc2cc(=O)[nH]c(Nc3nc(C)c4ccc(C)cc4n3)n2)cc1
-12%	COc1ccccc1-c1sc2ccccc2c1-c1ccc(OCCN2CCOCC2)cc1

# Seven records picked at random from those above, as already listed:
VDR inhibitor	Structure
-5%	Cc1ccc(S(=O)(=O)N2CCCCC2)cc1NC(=O)CSc1ccc2c(c1)OCCO2
-24%	COCCNC(=O)c1cn(C(C)c2ccccc2F)nn1 (centres undefined)
-12%	COc1ccccc1-c1sc2ccccc2c1-c1ccc(OCCN2CCOCC2)cc1
14%	O=C(Nc1ccc(S(=O)(=O)Nc2ncccn2)cc1)c1cccc(Cl)c1
5%	Cc1cccc(NC(=O)COC(=O)CCc2c[nH]c3ccccc23)c1
-5%	CCCCn1c(-c2ccco2)nc2oc3ccccc3c(=O)c2c1=O
8%	CCOC(=O)Cc1[nH]nc2c1C(c1ccsc1)C(C#N)=C(N)O2 (centres undefined)

# New compounds follow
VDR inhibitor	Structure
14%	CC(C)CNC(=O)CCCc1c[nH]c2ccccc12
-5%	CCOc1ccc(S(=O)(=O)N2CCCCC2)cc1NC(=O)CN1C(=O)NC(C)(C2CC2)C1=O (centres undefined)
12%	CCOc1cc(C(=O)Nc2ccc(-c3nc4cc(C)ccc4o3)cc2)cc(OCC)c1OCC
?	CCCCNC(=S)Nc1ccc(SC(F)F)cc1
14%	Cc1cc(C)cc(N2C(=O)CC(Sc3ncn[nH]3)C2=O)c1 (centres undefined)
12%	CCOc1ccccc1NC(=O)C(C)Sc1cc(-c2ccccc2)nc(C)n1 (centres undefined)
-23%	O=C1C(Nc2ccccc2)=C(NS(=O)(=O)c2ccccc2)C(=O)c2ccccc21
-7%&10%	O=C1CC(=O)Nc2cc(S(=O)(=O)Nc3ccc(F)cc3Cl)ccc2N1
11%	Cc1nc2cnc(N(C)C)nc2n(C)c1=O
-11%	COc1ccc(S(=O)(=O)N2CCOCC2)cc1NC(=O)C1CCN(S(=O)(=O)c2ccc(Cl)cc2)CC1
-6%	CCOc1ccc(Br)cc1CNCc1cccnc1
10%	CCOc1ccc(NC(=O)NCC2CCN(c3ccc(OC)cc3)C2)cc1 (centres undefined)
-3%	CCOc1ccccc1N1CC(C(=O)NCCOc2ccccc2OC)CC1=O (centres undefined)
-6%	CCNC(=S)Nc1ccc(Cl)c(C(F)(F)F)c1
-23%	CC(C)OC(=O)c1c(NC(=O)C2c3ccccc3Oc3ccccc32)sc2c1CCCC2
-12%	COC(=O)CNC(=O)c1ccccc1C
-15%	O=C(Cn1ncc2c(=O)oc3ccccc3c21)NCc1ccc(Cl)cc1
-18%	CCCCN(CCCC)C(=O)c1cc2ccccc2c(=O)o1
12%	CN(C(=O)CSc1cn(CC(=O)N2CCCC2)c2ccccc12)c1ccccc1
-9%	O=C(CN1C(=O)C2CCCCC2C1=O)Nc1ccccc1C(=O)O (centres undefined)
?	COCc1c(N)c(C)nc(Cl)c1C#N
-4%	NC(=O)c1ccccc1NS(=O)(=O)c1ccccc1
-10%	COc1ccccc1CN(Cc1ccco1)c1cnc(S(C)(=O)=O)nc1C(=O)Nc1ccccc1Cl
?	CCOCCN1CCN(c2c3c(nc4cc(-c5ccc(F)cc5)nn24)CCC3)CC1
8%	Cc1ccc(NC(=O)CSc2nc3ccc(NC(=O)c4cccs4)cc3s2)c(C)c1
-13%	CN(C(=O)COC(=O)c1cc([N+](=O)[O-])ccc1N1CCCC1)C1CCS(=O)(=O)C1 (centres undefined)
-25%	CC(C)CNC(=S)Nc1ccc(Oc2ccccc2)cc1
3%	CC(C)c1ccc(O)c(NC(=O)c2ncn[nH]2)c1
-11%&-13%&10%	O=C(/C=C/c1ccc(O)c(O)c1)OC(Cc1ccc(O)c(O)c1)C(=O)O (centres undefined)
-1%	Cc1ccc(Cl)cc1NS(=O)(=O)c1ccc2c(c1)NC(=O)C(C)C(=O)N2 (centres undefined)
-6%	CCOc1ccccc1NC(=O)/C=C/c1ccccc1[N+](=O)[O-]
-18%	Cc1ccc(S(=O)(=O)NCCC(=O)OCC(=O)Nc2cccc(Cl)c2)cc1
-8%	Brc1ccccc1OCCN1CCOCC1
-19%	CCOC(=O)c1nnn(-c2nonc2N)c1CSc1ccccn1
8%	COCCn1c(=O)c(-c2cc(F)cc(F)c2)nc2cnc(Oc3cccc(Cl)c3)nc21
-14%	COc1cc(C(=O)OCCc2cc3ccccc3c(=O)o2)cc(OC)c1OC
-2%	Cc1ccc(N(CC(=O)NC2CCCCC2)S(=O)(=O)c2cccs2)cc1
-4%	CCN(CC)S(=O)(=O)c1ccc(C)c(NC(=O)CSc2ncc(C(F)(F)F)cc2Cl)c1
0%	Cc1nc(N2CCCCC2C)c2c(C)c(C(=O)Nc3cccc(C(F)(F)F)c3)sc2n1 (centres undefined)
8%	COc1ccc(-c2nc(SCC(=O)Nc3cccc(C(C)=O)c3)n[nH]2)cc1
6%	O=C(Nc1cccc(S(=O)(=O)NC2=NCCC2)c1)c1ccccc1
12%	COc1ccc(C)cc1NC(=O)Cn1cc(S(=O)(=O)Cc2ccccc2Cl)c2ccccc21
-8%	O=C(Cc1c(F)cccc1Cl)NNC(=O)c1ccco1
-9%	O=C(Nc1ccc(-n2cccn2)cc1)C1CCN(Cc2ccccn2)CC1
-2%	CC(C)C1Cc2nc(Cl)c(C#N)cc2CO1 (centres undefined)
-4%	CCSc1nnc(NC(=O)CCNS(=O)(=O)c2cc(Br)cnc2N)s1
9%	CCOc1ccc(C(=O)NCC2CCCO2)cc1OCC (centres undefined)
-19%	COc1ccc(-c2ccc(/C=N/NC(=O)Cc3nnc(N)s3)o2)cc1Cl
6%	COc1ccc2[nH]cc(CCNc3ccnc(-c4cccc(NS(C)(=O)=O)c4)n3)c2c1
0%	CC(C)NS(=O)(=O)c1ccc(CCC(=O)NCc2ccncc2)cc1
16%	Cc1cc(C)cc(-n2nnnc2SCC(=O)Nc2nc(-c3ccc(Cl)cc3)cs2)c1
8%	CCC(=O)Nc1nnc(SCC(=O)N2c3ccccc3CC2C)s1 (centres undefined)
-6%	CC1(C)C2CCC1(CS(=O)(=O)Nc1ccc(S(=O)(=O)NC3CCCCC3)cc1)C(=O)C2 (centres undefined)
-7%&2%	COc1ccc(OC)c(CNC(=O)CCC(=O)N2Cc3ccccc3Oc3ncccc32)c1
-2%	O=C(Nc1ccc2c(c1)Cc1ccccc1-2)c1ccncc1
-4%	Cc1ccc(Cc2c(C)nc3nc(SCC(=O)NCCN4CCOCC4)nn3c2C)cc1
-10%	O=C(Oc1ccc([N+](=O)[O-])cc1)c1cccnc1
-5%	S=C(NCCCN1CCOCC1)Nc1ccc(Cl)cc1
-7%	O=C1c2ccccc2C(=O)N1CCC#Cc1ccc2cc(CCO)oc(=O)c2c1
2%	CCOC(=O)COc1c(OC)cc(Cl)cc1C1Nc2ccccc2C(=O)N1c1cccc(C)c1 (centres undefined)

# (continued)
VDR inhibitor	Structure
-2%	C[C@H](NC(=O)[C@@H]1Cc2ccccc2CN1C(=O)OC(C)(C)C)C(=O)NC1CCCC1
3%	C=CCN(c1ccccc1)S(=O)(=O)c1cccc(C(=O)Nc2ccncc2)c1
-16%	Cc1cccc(N2CCN(C(=O)CCC(=O)N3CC(C)Oc4ccccc43)CC2)c1C (centres undefined)
9%	CC(=O)Nc1ccc(S(=O)(=O)Nc2ccc3ccccc3n2)cc1
-3%	O=C(O)c1ccccc1NS(=O)(=O)c1cccc(C(F)(F)F)c1
9%	COc1ccc(CNC(=O)CSc2nnnn2-c2ccccc2)cc1
-3%	COc1ccc(Nc2nc(OC)nc(OC)n2)cc1
1%	Cc1nc2ccccc2c2ncccc12
14%	COCCNC(=O)CN(CC1CCCO1)C(=O)CCC(=O)Nc1ccccn1 (centres undefined)
-1%	CC(=O)NNC(=O)CN1C(=O)/C(=C/c2ccccc2)SC1=S
-2%	COc1cc(CCC(=O)Nc2c(C(=O)N3CCN(c4ccccc4OC)CC3)oc3ccccc23)on1
6%	CCOc1cccc(-c2nnc3sc(COc4ccc(OC)cc4)nn23)c1
-14%	Cc1nnc(SCC(=O)Nc2nccs2)n(N)c1=O
-3%	O=C1NC(=S)SC1=Cc1ccc(Cl)cc1
-20%	COc1cc(/C=C(/C#N)C(=O)c2c(C)[nH]c3ccccc23)ccc1OCC#N

# Five compounds from above, sorted by length of the SMILES, ascending:
VDR inhibitor	Structure
-3%	O=C1NC(=S)SC1=Cc1ccc(Cl)cc1
-14%	Cc1nnc(SCC(=O)Nc2nccs2)n(N)c1=O
-1%	CC(=O)NNC(=O)CN1C(=O)/C(=C/c2ccccc2)SC1=S
-3%	O=C(O)c1ccccc1NS(=O)(=O)c1cccc(C(F)(F)F)c1
-20%	COc1cc(/C=C(/C#N)C(=O)c2c(C)[nH]c3ccccc23)ccc1OCC#N

# The list continues:
VDR inhibitor	Structure
1%	c1ccc2c(N3CCCCC3)ncnc2c1
-13%	COCCN(CCOC)c1ncc(Cl)c(C(=O)c2c(C)cc3ccccn23)n1
-13%	Cc1ccc(S(=O)(=O)NC(=O)Nc2cccc([N+](=O)[O-])c2)cc1
9%	Cc1nn(C)c(C)c1S(=O)(=O)N1CCC(C(=O)NC2CCCCCC2)CC1
-16%	C#CCOCCOCCOCCNc1nc(N2CCN(C(=O)Cn3cc(CCO)nn3)CC2)nc(N2CCN(C(=O)[C@H](CCCCN)n3cc(CCCC)nn3)CC2)n1
3%	Cc1ccc(NS(=O)(=O)c2cccc(C(=O)Nc3c(C)n(C)n(-c4ccccc4)c3=O)c2)cc1
20µM*	COc1ccc(CC2=CC(=O)c3ccccc3C2=O)cc1
-5%	CCN1CCN(Cc2cc(=O)oc3cc4c(cc23)CCC4)CC1
-1%	CCOC(=O)/C(=N/Nc1ccc(C)cc1)S(=O)(=O)c1ccc(Cl)cc1
12%	O=C(O)CCN1C(=O)NC2(CCCC2)C1=O
-2%	Cn1c(C(=O)NC2CC2)cc(=O)n(C)c1=O
-2%	CCCCN1C(=O)C(C(=O)OCc2ccccc2)CC2=C1CCCC2=O (centres undefined)
-8%	COc1ccc(CC(=O)Nc2cc(C)c3c(=O)oc4ccccc4c3n2)cc1
-1%	Cc1c(NC(=O)c2ccc(-c3cccc([N+](=O)[O-])c3)o2)c(=O)n(-c2ccccc2)n1C
8%	COc1ccccc1CNC(=O)C1(c2ccc(Cl)cc2)CC1
1%	CC(=O)Oc1ccc2nc(-c3cccs3)oc(=O)c2c1
5%	O=C(Nc1sc2c(c1C(=O)Nc1ccccc1)CCC2)c1ccc(Br)cc1
-6%	COc1ccc2[nH]c3c(c2c1)CCN1C(=O)C(CC(=O)NCc2ccc(OC)c(OC)c2)C[C@H](C(=O)N(C(C)C)C(C)C)[C@@]31C (some centres undefined)
79µM*	CCCCCc1c2c(cc(O)c1C(=O)O)OC(=O)c1c(cc(OC)cc1C(=O)CCCC)O2
-5%	Cc1[nH]c(-c2ccc3c(c2)OCO3)nc1C(=O)O
-2%	CC(=O)c1cc(C#N)c(Oc2ccccc2)nc1C
-25%	O=C(NNc1ccccc1)NC(Cc1ccccc1)C(=O)O (centres undefined)
1%	Cc1ccc(S(=O)(=O)c2cn(Cc3ccc(F)cc3)c3cc4c(cc3c2=O)OCO4)cc1
8%	O=C(NNC(=O)c1ccncc1)Nc1ccc(N=Nc2ccccc2)cc1
-3%	Cc1cc(C)nc(SC2CCOC2=O)n1 (centres undefined)
0%	N/C(=N\NC(=O)c1cccs1)c1cc2ccccc2oc1=O
10%	CC(Cc1c[nH]c2ccccc12)NC(=O)C1CCCNC1=O (centres undefined)
18%	CC(=O)Nc1ccccc1-c1nc2ccccc2n(Cc2cccc(Br)c2)c1=O
-5%	COc1ccc(S(=O)(=O)N[C@@H](Cc2ccc(Cl)cc2)C(=O)N2CC[C@@]3(O)CCCC[C@H]3C2)cc1
8%	O=C1CCc2cc(S(=O)(=O)NCCC(=O)NC3CCCCC3)ccc2N1
-3%	OCCCNC(=S)Nc1ccc(Oc2ccccc2)cc1
-21%	COc1ccc(NC(=O)CN(C)C(=O)c2cccc(S(=O)(=O)N3CCN(c4ccc(F)cc4)CC3)c2)cc1
12%	COc1ccc(OC)c(-c2cc(C(=O)Nc3sc4c(c3C#N)CCC(C)C4)c3ccccc3n2)c1 (centres undefined)
-14%	O=C1CSc2ccc(S(=O)(=O)N3CCN(c4ccccc4F)CC3)cc2N1
4%	CN(CC(=O)Nc1ccc(F)c(F)c1F)c1ncnc2sccc12
-6%	CN(C(=O)COC(=O)c1ccc2c(=O)n3c(nc2c1)CCC3)c1ccccc1
-18%	Cc1cccc(NC(=O)CNC(=O)CSc2ncccn2)c1C
